Screening data (PubChem BioAssay)
D2 agonist = Beta-Arrestin HTS for Positive Allosteric Modulators of the Human D2 Dopamine Receptor: Agonists | DiscoveRx PathHunter D2 beta-arrestin, luminescence, 90 min; 100% = 57 uM dopamine signal | AID 624465, 2012 | D(2) dopamine receptor (Homo sapiens), P14416 | 360,000 tested, 0.084% active | activation, % (test concentration not listed); in the data active = activation above about 40%; inconclusive = about 15% to 40%; inactive = below about 15%; also: compound concentration not given in the record; the text of the record calls up to 30% inactive
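Agonist mode: compounds alone added to overnight-plated D2 PathHunter cells for 90 min at 37 C, with 57 uM final dopamine (EC100) defining full response. Beta-arrestin recruitment detected by chemiluminescent reagent, read after 1 h at ambient temperature.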
PINK1 modulator = A Quantitative High throughput Screen to Identify Chemical Modulators of PINK1 Expression; PINK1 immunofluorescence, high-content cytometry, 24 h; Potency, µM (highest dose often 76.6 µM), for the others: at the top dose activation (PINK1 increase), hits mostly activators; 410,000 tested, 0.2% active; active = well fitted activation curve with a large enough effect; inconclusive = small, poorly fitted or top-dose-only effect; inactive = flat fitted curve, though single readings scatter; cell line not stated here;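 also: potency is read from the fitted curve at half-maximal effect; % of control where 0% means no effect; nearly all actives have a fitted effect of over 65% in size; a mitochondrial uncoupler was the plate control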
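PINK1 protein, normally rapidly degraded, was detected by immunofluorescence after 24 hour compound treatment of a stable cell line. Titration data (5 concentrations) came from laser-scanning cytometry, with CCCP-treated wells as controls.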
TRPML1 ag = qHTS for Agonists of the Human Mucolipin Transient Receptor Potential 1 (TRPML1) | TRPML1-expressing cells, Ca2+ dye fluorescence, FDSS; host cell line not named in the record; reference of the full effect not given here | activation, % (no concentration beside the values) | 410,000 tested, 0.12% active | AID 624414, 2012; in the data active = activation above about 50%; inconclusive = about 30% to 50%; inactive = below about 30%; also: 0% is about no effect; the text of the record puts the active cut at 80%
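TRPML1-DL cells, Tet-induced overnight (~16 h, 37 degrees C), loaded 45-90 min at room temperature with Ca8 no-wash calcium dye plus quencher. FDSS fluorescence: 10 s baseline, compound pin-transfer, 110 s agonist read, then EC80 54-4 (4uM final) and 110 s antagonist read.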
TRPML1 blocker = qHTS for Inhibitors of the Human Mucolipin Transient Receptor Potential 1 (TRPML1); TRPML1-inducible cells, Ca2+ dye fluorescence, FDSS; hits give low values; inhibition of EC80 agonist-evoked calcium signal; activity change, negative = inhibition, % (no concentration beside the values); 390,000 tested, 0.02% active; AID 624415, 2012; in the data active means activity change below about -50%; inconclusive means about -30% to -50%; inactive means above about -30%;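 also: stimulus is agonist 54-4 at its EC80 concentration; % is scaled to controls: 0 for no effect and ±100 for the full control effect; compound concentration not given in the record; the text of the record puts the active cut at -80%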
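Tet-induced TRPML1-DL cells loaded with Ca8 no-wash calcium dye were read kinetically on FDSS. Compound addition was followed by EC80 agonist 54-4 (4 uM final); inhibition was read over 110 s.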
Six1-Eya2 blk = qHTS Assay for Inhibitors of the Six1/Eya2 Interaction | AID 651725, 2012 | 360,000 tested, 0.56% active | AlphaScreen GST-Six1/His-Eya2 binding, biochemical; hits give low values; control for the full effect not named in the record | activity change, % (concentration not given with the values); in the data active = activity change below about -65%; inconclusive = about -30% to -65%; inactive = above about -30%; also: % is scaled to controls: 0 for no effect and ±100 for the full control effect
Target sequence (O00167 whole entry, looked up): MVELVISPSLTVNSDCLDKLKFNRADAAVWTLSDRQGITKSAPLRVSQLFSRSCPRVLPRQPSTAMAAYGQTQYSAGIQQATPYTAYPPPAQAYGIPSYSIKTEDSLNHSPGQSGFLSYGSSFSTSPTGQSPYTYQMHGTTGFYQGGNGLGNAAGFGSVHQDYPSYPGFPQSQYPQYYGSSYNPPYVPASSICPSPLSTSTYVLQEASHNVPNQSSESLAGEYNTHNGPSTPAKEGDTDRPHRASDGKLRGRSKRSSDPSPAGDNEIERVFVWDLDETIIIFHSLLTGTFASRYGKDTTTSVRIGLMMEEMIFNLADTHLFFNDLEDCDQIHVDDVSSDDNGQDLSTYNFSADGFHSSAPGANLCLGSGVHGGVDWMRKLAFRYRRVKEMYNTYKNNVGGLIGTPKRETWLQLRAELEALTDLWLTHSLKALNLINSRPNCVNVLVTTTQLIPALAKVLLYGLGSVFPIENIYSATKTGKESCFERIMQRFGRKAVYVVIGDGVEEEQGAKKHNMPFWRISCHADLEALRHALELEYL
Target sequence (Q15475 whole entry, looked up): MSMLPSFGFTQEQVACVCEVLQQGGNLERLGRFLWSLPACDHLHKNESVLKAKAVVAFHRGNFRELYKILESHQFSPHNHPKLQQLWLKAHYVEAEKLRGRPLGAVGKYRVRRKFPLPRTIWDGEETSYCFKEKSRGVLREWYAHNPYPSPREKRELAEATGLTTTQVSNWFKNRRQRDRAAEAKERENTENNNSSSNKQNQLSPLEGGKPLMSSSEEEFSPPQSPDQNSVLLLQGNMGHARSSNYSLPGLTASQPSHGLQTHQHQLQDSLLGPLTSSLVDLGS
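AlphaScreen luminescence read after one hour at 37 °C in darkness. Pin-transferred compounds met GST-Six1 and His-Eya2 protein (5X stock 250 nM/500 nM) plus glutathione donor and Ni-chelate acceptor beads (5X, 50 ug/mL).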
CtBP-E1A inh = qHTS Assay for Inhibitors of the CtBP/E1A Interaction; CtBP / adenovirus E1A interaction (AlphaScreen); activity change, % (test concentration not listed); 340,000 tested, 0.49% active; AlphaScreen GST-E1A/His-CtBP binding, 1536-well; hits give low values; control for the full effect not named in the record; in the data active means activity change below about -65%; inconclusive means about -30% to -65%; inactive means above about -30%; also: % is scaled to controls: 0 for no effect and ±100 for the full control effect; compound concentration not given in the record
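GST-E1A and His-tagged CtBP (125 nM each as 5X stock) were preincubated with pin-transferred compound for 2 h at 37 °C in the dark, then glutathione donor and nickel acceptor beads were added for 1 h before AlphaScreen reading.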
* marks the source's active call; other numbers are inactive results; ? = inconclusive; · = no result given; & = joins results of further samples; [ ] = dose if it differs, or a comment. Rows were taken by chance. Share with any hit: about 1%.

Start of the data: the first two compounds (preview)
SMILES	D2 agonist	PINK1 modulator	TRPML1 ag	TRPML1 blocker	Six1-Eya2 blk	CtBP-E1A inh
O=C(Nc1cc(S(=O)(=O)N2CCOCC2)ccc1N1CCCC1)c1cc(F)c(F)cc1Cl	-5.8	?	-0.3	-17.0	-3.8	5.0
COC(=O)c1cc2occc2n1Cc1nc(-c2ccccc2)oc1C	·	-0.1%	0.8	13.1	·	·

Results, repeating the preview:
SMILES	D2 agonist	PINK1 modulator	TRPML1 ag	TRPML1 blocker	Six1-Eya2 blk	CtBP-E1A inh
O=C(Nc1cc(S(=O)(=O)N2CCOCC2)ccc1N1CCCC1)c1cc(F)c(F)cc1Cl	-5.8	?	-0.3	-17.0	-3.8	5.0
COC(=O)c1cc2occc2n1Cc1nc(-c2ccccc2)oc1C	·	-0.1%	0.8	13.1	·	·
Cc1ccc(C(=O)Nc2scc(-c3ccccc3)c2C(=O)O)o1	-7.1	0.2%	0.6	-15.8	-9.4	-13.0
O=C1CC(NS(=O)(=O)c2cccs2)CN1c1cccc(F)c1 (stereo unspecified)	-0.6	1.3%	-0.7	5.5	10.4	1.1
CN(c1ccccc1)c1nc2ccsc2c(=O)s1	0.2	1.5%	0.2	16.2	55.7	54.6
Cc1cc(N2CCC(C)CC2)nc(SCC(=O)c2ccccc2)n1	-1.4	-1.6%	3.5	59.0	6.5	4.3
O=C(O)c1cccc(NC(=O)c2ccc(CN3C(=O)c4ccccc4C3=O)cc2)c1	1.0	0.5%	-0.8	-2.4	-28.8	-20.2
Cc1cc(NC(=O)CN2CCOCC2)n(-c2ccccc2)n1	-4.1	1.5%	-0.2	13.9	13.9	3.4
Cc1ccc(S(=O)(=O)Nc2ccc3c(c2)C(=O)N([C@H](C)CO)C[C@H](C)[C@@H](CN(C)C(=O)NC2CCCCC2)OCCCC[C@@H](C)O3)cc1	-7.2	7.2%	0.0	-12.7	5.3	5.0
O=C(Nc1cccc(F)c1)C1CCCN(S(=O)(=O)c2ccc(-n3cnnn3)cc2)C1 (stereo unspecified)	-1.2	-0.6%	0.2	15.8	7.0	0.5
COC(=O)Cc1ccc(OC(=O)C2CCN(S(=O)(=O)c3ccc(OC)c(OC)c3)CC2)cc1	1.1	0.7%	1.6	13.0	-1.5	2.3
CCc1nnc(NC(=O)c2ccc(-c3ccc([N+](=O)[O-])cc3Cl)o2)s1	1.8	2.5%	-0.3	3.3	-4.5	-0.9
CCCC(=O)Nc1nc2nc(C)cc(=O)n2[nH]1	-1.1	3.0%	0.9	28.0	9.6	-3.0
CCc1ccc(/C=N/NC(=O)c2ccccn2)cc1	4.0	-0.1%	0.4	24.5	-2.3	-6.7
Cc1ccc(Cl)cc1N1CCN(C(=O)CCC(=O)O)CC1	-3.2	-0.5%	-0.9	15.6	2.1	3.6
O=C(c1cc2cc([N+](=O)[O-])ccc2s1)N1CCOCC1	5.3	0.4%	1.3	-12.2	6.7	4.1
C=CCNc1nc(N)c(C(=C(C#N)C#N)c2ccc(Br)cc2)s1	-0.8	9.5%	0.0	2.3	?	?
CC(C)CC(NC(=O)c1ccccc1)C(=O)N/N=C/c1ccco1 (stereo unspecified)	2.1	2.8%	2.5	-27.1	-22.2	-6.8
Cc1cc(C)cc(NC(=O)CSc2nc3ccncc3[nH]2)c1	-3.6	1.1%	-0.2	8.0	4.2	-2.5
CCOC(=O)N1CCC(NC(=O)c2cc(C(=O)NCc3ccc(F)cc3)ccc2CO)CC1	0.4	-0.9%	-0.8	15.0	6.8	-1.3
O=C(c1nc2ccc(Cl)cn2c1CN1CCC[C@H]1CO)N1CCCCCCC1	-1.0	0.1%	-0.1	5.6	0.0	3.1
Cc1cc(C)nc(NS(=O)(=O)c2ccc(N3C(=O)C4CCCCC4C3=O)cc2)n1 (stereo unspecified)	-2.0	2.7%	-0.1	5.6	2.0	-15.9
Cc1ccc2[nH]c(=O)c(CN(C(=O)c3cccc([N+](=O)[O-])c3)C(C)C)cc2c1	-0.1	1.6%	-0.1	41.6	-1.0	-12.7
c1ccn2cc(C34CC5CC(CC(C5)C3)C4)nc2c1	-2.2	-1.0%	3.3	40.4	-25.8	14.6
CCCCn1c(N)c(N(CC(C)C)C(=O)CSCc2cccc(C)c2)c(=O)[nH]c1=O	-2.4	0.1%	0.4	8.2	6.3	-24.0
C=C/C(C)=C/C[C@H]1C(=C)CCC2[C@](C)(C(=O)O)CCC[C@@]21C (stereo partly specified)	-3.0	0.4%	·	·	0.6	-12.9
O=C(CCNC(=O)c1ccc(Cl)cc1)Nc1cccc(S(=O)(=O)N2CCCCC2)c1	-3.1	2.9%	3.1	42.0	-5.6	2.0
Cc1nn(S(=O)(=O)c2ccc(C(C)C)cc2)c(C)c1S(=O)(=O)N1CCOCC1	-2.8	-0.3%	-0.8	5.1	6.6	10.0
CCOC(=O)c1cnc(SC2CC(=O)N(c3cccc(OC)c3)C2=O)nc1N (stereo unspecified)	2.6	1.8%	0.7	22.1	3.8	-2.6
Cc1c(Cl)cccc1NC(=O)Nc1cc(C(C)(C)C)nn1C	1.2	8.3%	-0.6	22.5	3.0	3.4
Cc1ccc(NC(=O)c2cc(=O)n(Cc3ccccc3)c(=O)[nH]2)cc1C	2.9	7.2%	-0.6	-7.8	-0.1	-2.2
CCN(Cc1cccs1)C(=O)CN1C(=O)NC2(CCCc3ccccc32)C1=O (stereo unspecified)	0.0	0.8%	-0.2	-3.6	15.9	·
COc1ccc(OC)c(NC(=O)C2CCN(S(=O)(=O)c3cccs3)CC2)c1	0.1	0.0%[38.3 µM]	-0.3	-1.7	4.5	-1.4
Nc1ccc(C(=O)N/N=C\c2ccc(OC(=O)c3ccccc3Cl)cc2)cc1	-1.5	5.2%	0.1	32.8	4.5	·
c1nc2sc3c(c2c2nnnn12)CCC3	-1.5	-1.5%	-0.8	20.9	-3.4	-8.4
CC1=C(C(=O)N(C)C)CC(CC(=O)NC(c2ccccc2)c2ccccc2)C(=O)N1Cc1ccccc1 (stereo unspecified)	0.4	-0.2%	·	·	-2.1	0.0
O=C(NCc1ccccc1Cl)C1=CC=CN2CCS(=O)(=O)N=C12	-2.8	4.5%	1.5	?	3.7	-5.3
COc1ccccc1C(=O)Nc1c(C(=O)Nc2ccccc2F)oc2ccccc12	·	10.4%	0.5	39.4	·	·
Cc1cc(C)nc(Oc2ccc(Br)cc2Br)n1	-2.1	4.5%	-0.4	-3.8	11.5	16.1
Cc1ccc(Cl)cc1N1CCN(C(=O)C2CCN(S(=O)(=O)c3cccc4nonc34)CC2)CC1	·	-0.1%	-0.3	5.5	·	·
O=C(COc1ccccc1)Nc1ccc(-c2ccc(N3CCOCC3)nn2)cc1	-3.6	7.8%	-0.3	14.6	-22.5	10.9
O=C(COC(=O)C1(c2ccccc2F)CCCC1)N1CCN(C(=O)c2ccco2)CC1	-1.6	4.3%[38.3 µM]	0.1	-3.7	0.3	7.6
CCCCNC(=O)C1CC(=O)N(c2ccc(OC)cc2)C1c1ccc(OC)cc1 (stereo unspecified)	-1.9	-3.6%	-0.6	49.9	2.2	-2.4
COc1ccc(-n2ncc(C(C)NS(=O)(=O)c3cccs3)c2C)cc1 (stereo unspecified)	2.5	1.5%	0.2	-9.1	11.8	-7.2
COc1ccc(C(=O)NC(=S)NCc2cccnc2)cc1[N+](=O)[O-]	0.6	-0.1%	-0.8	-13.5	6.1	0.8
O=C(NCc1ccc2c(c1)OCO2)c1ccccc1	0.2	-0.8%	0.4	1.9	-2.2	8.4
C=CCOC(=O)C1=C(C)NC(SC)=C(C#N)C1c1ccc(OCC)cc1 (stereo unspecified)	-3.6&-1.5	?	2.7&1.8	6.8&-5.0	33.5&16.7	0.0&15.7
CCCNCc1cc(OC)c(OCC(=O)NCCc2ccccc2)cc1Br	-2.5	-1.0%	0.4	28.5	8.8	0.4
CCOc1cc(S(=O)(=O)NCc2ccccn2)ccc1Cl	-0.5	-0.8%[38.3 µM]	2.1	20.4	5.7	2.2
CNC(=O)c1c(NC(=O)CS(=O)(=O)c2ccc(Cl)cc2)sc(C)c1C	-0.8	2.0%	-0.5	-2.8	-11.6	-3.6
(further entries)
SMILES	D2 agonist	PINK1 modulator	TRPML1 ag	TRPML1 blocker	Six1-Eya2 blk	CtBP-E1A inh
Cc1ccc(C(=O)Nc2ccc(S(=O)(=O)NC3=NCCCCC3)cc2)c(C)c1	12.6	0.3%	2.2	1.5	-11.5	7.7
Cn1c(SCC(=O)N2CCCC2=O)nc2ccccc2c1=O	-2.4	3.0%	-0.6	-3.7	-1.9	1.4
O=C1CCC(C(=O)OCc2ccccc2)N1 (stereo unspecified)	-4.4	7.6%[38.3 µM]	0.5	-27.0	3.1	-0.1
C[C@@H]1CCCCO[C@@H](CN(C)Cc2ccc(C(F)(F)F)cc2)[C@@H](C)CN([C@H](C)CO)C(=O)c2cc(N(C)C)ccc2O1	-11.2	0.1%	-0.7	22.1	?	-23.8
OC(c1ccc2c(c1)OCO2)c1ncc(-c2cccc(C(F)(F)F)c2)[nH]1 (stereo unspecified)	0.7	1.5%	-0.5	·	-8.3	-28.2
O=C(Oc1cccc(C(=S)N2CCOCC2)c1)c1cccc(Cl)c1	-2.8	2.6%	1.6	37.0	-18.4	-1.8
CCN1C(=O)[C@H]2[C@@H](c3ccc(C(F)(F)F)cc3)N[C@]3(CCCN(CC4CCCCC4)C3=O)[C@H]2C1=O	-8.4	0.5%	0.6	31.9	-3.3	-1.5
OC[C@@H](O)[C@@H](O[C@@H]1O[C@H](CO)[C@H](O)[C@H](O)[C@H]1O)[C@H](O)[C@@H](O)CO	-5.2	1.4%	-0.5	-10.4	10.7	5.1
O=C(COC(=O)CNS(=O)(=O)/C=C/c1ccccc1)NC1CCS(=O)(=O)C1 (stereo unspecified)	-1.8	-0.8%	0.0	14.6	0.6	6.1
Cc1nnc(SCC(=O)NC23CC4CC(CC(C4)C2)C3)n(N)c1=O	-1.5	-0.3%	-0.1	23.6	8.8	·
O=C(CC1Sc2ccccc2NC1=O)NCc1ccc(Cl)cc1 (stereo unspecified)	-0.8	11.7%	-1.0	-2.8	4.5	13.5
OCCN(CC#CC(O)(c1ccccc1)C1CCCCC1)CCO (stereo unspecified)	-7.1	4.5%	-0.7	20.4	1.6	8.3
CCCn1c(N)c(N(CCOC)C(=O)c2cc(-c3ccco3)nc3ccccc23)c(=O)[nH]c1=O	-1.8	-0.7%	-0.2	-8.3	1.8	-28.9
CCOCCCNC(=S)Nc1cc(OCC)c(NC(=O)c2ccco2)cc1OCC	3.2	4.0%	0.3	-11.5	-17.4	2.0
CCN(CC)CCCNC(=O)c1cc(-c2ccc(O)cc2)on1	-2.4	-1.1%	0.3	-5.1	-4.5	0.5
Cn1c(NC(=O)C2CC2)cc(=O)n(C)c1=O	4.2	1.3%	-1.0	6.2	-18.8	-9.2
